# Sfp inh – Sfp phosphopantetheinyl transferase inhibition; 310,000 compounds, 3.5% hits; Potency, µM, for inactives: max response, negative = inhibition, hits mostly inhibitors; Q9F4F7; Biochemical Sfp PPTase activity, qHTS; active = well fitted inhibition curve with a large enough effect; inconclusive = small, poorly fitted or top-dose-only effect, or another doubt; inactive = no such curve, though single readings can be large or run the other way;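 note: the enzyme is Sfp with the accession as filed and its product quenches rhodamine fluorescence; potency is the fitted concentration of half-maximal effect; 0% = enzyme reaction without inhibitor and -100% = no enzyme wells; top concentration of the series not given in the record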
#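 Buffer: 50 mM Hepes-Na pH 7.6, 10 mM MgCl2, 0.01% Nonidet P-40, 0.01% BSA. Enzyme 15 nM, pre-exposed to compound 15 min; substrates then added and fluorescence change tracked over 30 min.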
# Menin MLL FP FL – inhibitors of human menin-MLL interaction, wild-type MLL peptide; Fluorescence polarization, fluorescein-MLL peptide displacement from menin; AID 1766; FP activity change, % at 61.4 µM; 290,000 tested, under 10 active; inconclusive = falling polarisation curve, or a change in total fluorescence; inactive = total fluorescence flat and polarisation flat or rising; no compound was filed as active; the % refers to the polarisation; negative = inhibition;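 note: % of control where 0% means no effect; inhibitors lower the polarisation; unlabelled MLL peptide was the positive control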
# TRPML1 ag – activates the human TRPML1 channel | Q9GZU1 | TRPML1-expressing cells, Ca2+ dye fluorescence, FDSS; host cell line not named in the record; reference of the full effect not given here | activation, % (test concentration not listed) | 410,000 compounds, 0.12% hits; in the data active = activation above about 50%; inconclusive = about 30% to 50%; inactive = below about 30%; note: 0% is about no effect; the text of the record puts the active cut at 80%
#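 TRPML1-DL cells, Tet-induced overnight (~16 h, 37 degrees C), loaded 45-90 min at room temperature with Ca8 no-wash calcium dye plus quencher. FDSS fluorescence: 10 s baseline, compound pin-transfer, 110 s agonist read, then EC80 54-4 (4uM final) and 110 s antagonist read.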
# ClpP mod – qHTS Assay for Activators of ClpP | ATP-dependent Clp protease proteolytic subunit (Bacillus subtilis (strain 168)), P80244 | purified B. subtilis ClpP, FRET peptide cleavage, 20 min | Potency, µM (highest dose often 57.5 µM), for the others: at the highest dose activity change, negative = active | 340,000 compounds, 1.9% hits; active = well fitted falling curve with a large enough effect; inconclusive = small, poorly fitted or top-dose-only effect; inactive = no such curve, though single readings can be large or run the other way; note: potency is the fitted concentration of half-maximal effect; the source files actives as falling curves though it sought activators and does not explain the sign; nearly all actives have a fitted effect of over 65% in size; many hits overshoot -100%
# Target sequence (P80244 whole entry, looked up): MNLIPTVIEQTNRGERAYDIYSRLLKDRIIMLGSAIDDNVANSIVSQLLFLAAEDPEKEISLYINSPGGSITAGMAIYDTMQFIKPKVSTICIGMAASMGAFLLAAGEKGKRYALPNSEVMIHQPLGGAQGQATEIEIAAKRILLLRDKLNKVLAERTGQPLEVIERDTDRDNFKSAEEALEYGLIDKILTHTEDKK
#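 Purified B. subtilis ClpP, 10 microg/mL final in Tris/HCl pH8 with KCl, BSA, glycerol and Tween-20, cleaved an Abz/nitrotyrosine-quenched decapeptide. Fluorescence (ex 320, em 430) was read at 0 and 20 min at room temperature. Delta was normalized to 5.8 microM ADEP and DMSO/no-enzyme controls.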
# TRPV1 PAM – enhances activation of the human vanilloid receptor TRPV1; potentiation, % at 8.33 µM; TRPV1-expressing cells, Fluo-8 calcium influx, capsaicin EC20 potentiation; host cell line not named in the record; control for the full effect not named in the record; 320,000 compounds, 0.02% hits; active means potentiation above 80%; inconclusive means 30% to 80%; inactive means below 30%; note: 0% is about no effect
# Target sequence (Q8NER1 whole entry, looked up): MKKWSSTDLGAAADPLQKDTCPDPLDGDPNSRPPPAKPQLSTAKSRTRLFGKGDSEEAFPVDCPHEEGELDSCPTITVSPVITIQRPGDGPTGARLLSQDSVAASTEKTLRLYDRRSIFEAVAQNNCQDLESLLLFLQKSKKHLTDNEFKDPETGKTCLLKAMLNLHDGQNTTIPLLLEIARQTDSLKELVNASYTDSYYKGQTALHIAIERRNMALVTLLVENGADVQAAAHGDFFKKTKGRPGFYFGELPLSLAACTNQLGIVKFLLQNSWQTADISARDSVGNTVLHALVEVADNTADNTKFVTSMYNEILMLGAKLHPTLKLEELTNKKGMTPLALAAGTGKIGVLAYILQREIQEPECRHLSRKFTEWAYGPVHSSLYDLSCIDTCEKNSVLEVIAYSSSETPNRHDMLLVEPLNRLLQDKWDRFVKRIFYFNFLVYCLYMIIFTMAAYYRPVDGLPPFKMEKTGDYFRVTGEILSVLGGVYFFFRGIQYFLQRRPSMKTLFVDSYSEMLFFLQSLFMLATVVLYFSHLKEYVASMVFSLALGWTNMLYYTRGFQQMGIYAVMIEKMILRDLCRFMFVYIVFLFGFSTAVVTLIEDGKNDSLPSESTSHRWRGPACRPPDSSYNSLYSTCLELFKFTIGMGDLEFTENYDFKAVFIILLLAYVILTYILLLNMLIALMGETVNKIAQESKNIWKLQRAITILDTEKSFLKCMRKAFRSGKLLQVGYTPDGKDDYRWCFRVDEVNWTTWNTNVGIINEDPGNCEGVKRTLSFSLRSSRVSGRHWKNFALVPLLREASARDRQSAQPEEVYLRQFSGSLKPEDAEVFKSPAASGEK
#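 Cells expressing TRPV1 were dye-loaded with Fluo-8 and read kinetically: 10 s baseline, 3 min after compound (agonist portion), then 2 min after EC20 capsaicin (allosteric enhancer portion). Calcium-bound dye fluorescence at 480/520 nm.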
# PINK1 expr mod – PINK1 expression modulation; AID 624263; 410,000 compounds, 0.2% hits; Potency, µM (series often up to 76.6 µM), inactives show top-dose activation (PINK1 increase), hits mostly activators; PINK1 immunofluorescence, high-content cytometry, 24 h; active = well fitted activation curve with a large enough effect; inconclusive = small, poorly fitted or top-dose-only effect; inactive = flat fitted curve, though single readings scatter; cell line not stated here;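 note: potency is the fitted concentration of half-maximal effect; % of control where 0% means no effect; nearly all actives have a fitted effect of over 65% in size; a mitochondrial uncoupler was the plate control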
#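 Decision-based qHTS: stable cells, 24 h exposure to five compound concentrations, CCCP as control. Fixed cells stained for PINK1 plus nuclear, mitochondrial and cell markers, cytometer read.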
# TRPML1 blocker – inhibitors of human TRPML1 channel | TRPML1-inducible cells, Ca2+ dye fluorescence, FDSS; hits give low values; inhibition of EC80 agonist-evoked calcium signal | Q9GZU1 | activity change, negative = inhibition, % (no concentration beside the values) | 390,000 compounds, 0.02% hits; in the data active means activity change below about -50%; inconclusive means about -30% to -50%; inactive means above about -30%;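 note: stimulus is agonist 54-4 at its EC80 concentration; % is set by controls: 0 for no effect and ±100 for the full control effect; compound concentration not given in the record; the text of the record puts the active cut at -80%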
#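 Calcium fluorescence in TRPML1-DL cells induced overnight with Tet: a 110 s read after compound pin addition, then a 110 s antagonist read after challenge with 54-4 at 4 uM final (EC80).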
# * marks the source's active call; other numbers are inactive results; ? = inconclusive; . = not tested or not shown; & = joins results of further samples; [ ] = another dose, or the depositor's remark.
1: COc1ccc(CCNC(=O)Cn2cccc2C(=O)c2ccccc2)cc1OC
2: CCOC(=O)C(CCc1nnc(N)s1)C(=O)OCC
3: CNC[C@@H]1Oc2cc(Br)ccc2S(=O)(=O)N([C@@H](C)CO)C[C@H]1C
4: CC/C(=N\NC(=O)CNC(=O)/C=C/c1ccco1)c1ccccc1
5: CC1Cn2cc(C(=O)Nc3ccccc3C(F)(F)F)c(=O)c3c(Cl)ccc(c32)O1 (configuration not stated)
6: Cc1ccc(CSCC(=O)Nc2ccc(N3CCOCC3)cc2N2CCOCC2)cc1
7: COc1ccc(Cl)cc1NS(=O)(=O)N1CCOCC1
8: Cc1cccc(S(=O)(=O)Nc2cccc(-c3cn4ccsc4n3)c2)c1
9: COc1ccc(NC(=O)CC(C)n2nc(C)cc2C)cc1Cl (configuration not stated)
10: Cc1nc2ccc(Cl)cc2n1C
compound no.,1,2,3,4,5,6,7,8,9,10
Sfp inh,8%,6%,.,-1%,.,.,15%,15%,.,.
Menin MLL FP FL,4.4,-1.9,.,0.0,.,.,.,-1.0,.,.
TRPML1 ag,0.3,-0.4,-0.4,-0.9,2.0,-0.4,0.2,-0.8,0.4,-0.9
ClpP mod,-1.5%,-0.5%,-1.2%,-1.4%,-20%,35µM*,-0.2%,-1.8%,-0.3%,1.6%
TRPV1 PAM,-9,12,.,13,-8,17,-5,18,.,.
PINK1 expr mod,-2.7%,3.0%[38.3 µM],2.7%,0.2%,-0.7%,-0.2%,-0.6%,0.1%,2.0%,1.7%
TRPML1 blocker,-9,-17,-6,4,-19,10,-16,-2,7,-22

11: Cc1cc(C)c(C(=O)N2CCCC(Nc3ccc(F)cc3)C2)o1 (configuration not stated)
12: CN(Cc1ccccc1)c1ccc(C(CC(N)=O)NC(=O)c2ccc(Br)cc2)cc1[N+](=O)[O-] (configuration not stated)
13: Nc1c(-c2ccccc2)n[nH]c1-c1ccccc1
14: COc1ccc(OC)c(-c2cc(C(F)(F)F)c3c(n2)sc2c(O)cc(=O)[nH]c23)c1
15: CN1CCN(c2ncnc3c2ncn3[C@H]2CN(Cc3ccc4c(c3)OCO4)C[C@@H](CO)O2)CC1
16: Cc1ccccc1Nc1nnc(SCC(=O)c2c(N)n(C3CC3)c(=O)[nH]c2=O)s1
17: CC(=O)C[C@H](O)CC(=O)[C@H]1OC(=O)[C@H](C)CCCCc2ccccc21
18: COCC(=O)Nc1ccccc1-c1ccccc1
19: COc1ccc(CNC(=O)CCC(=O)N2CCN(S(=O)(=O)c3ccc(Cl)cc3)CC2)cc1
20: COc1ccc(CCNS(=O)(=O)c2ccc3c(c2)CCN3C(=O)CCC(=O)O)cc1OC
compound no.,11,12,13,14,15,16,17,18,19,20
Sfp inh,2%,-11%,9%,16%,.,.,.,16%,1%,4%
Menin MLL FP FL,1.9,5.0,2.2,29,.,.,.,-0.1,0.9,1.5
TRPML1 ag,1.0,1.1,-0.4,0.1,0.8,-0.9,-0.7,-0.7,3.3,-0.6
ClpP mod,-0.5%,-0.5%,28µM*,-1.4%,1.3%,-1.5%,0.3%,-0.2%,-1.0%,1.3%
TRPV1 PAM,-6,23,-1,0,.,7,.,0,3,.
PINK1 expr mod,-0.5%,?,-4.8%[38.3 µM],-1.3%,0.4%,1.6%,-1.5%,-0.8%,-0.1%,0.4%[38.3 µM]
TRPML1 blocker,10,25,34,-10,4,-5,5,-5,-1,-2

21: OC(COCc1ccccc1)CN1CCN(c2ccccc2F)CC1 (configuration not stated)
22: CC(OC(=O)CCN=C1NS(=O)(=O)c2ccccc21)C(=O)Nc1ccc(N(C)C)cc1 (configuration not stated)
23: CN(Cc1ccccc1)S(=O)(=O)c1cccc2nsnc12
24: COC(=O)[C@]1(C)CCC[C@@]2(C)C3CC[C@@]4(C)C[C@]3(CC[C@H]12)C[C@H]4O (some centres not stated)
25: COc1ccc(CNC(=O)c2ccc3c(c2)N(Cc2ccccc2C)C(=O)c2ccccc2S3=O)cc1 (configuration not stated)
26: Cc1ccccc1C(=O)N1CCC(C(=O)Nc2nc3ccc(F)cc3s2)CC1
27: CC1CC(C)(C)CC2(C1)NC(=O)N(CC(=O)NCc1ccccc1F)C2=O (configuration not stated)
28: C#CCN(C(=O)c1ccc(OC2CCN(Cc3ccccn3)CC2)cc1)C1CCCCC1
29: O=C(NC1CCCCC1)NC1CC2CCC(C1)N2C(=O)NCc1ccccc1 (configuration not stated)
30: CC(C)c1nc(SCC(=O)Nc2c[nH]c(=O)[nH]c2=O)c2cnn(-c3ccccc3)c2n1
compound no.,21,22,23,24,25,26,27,28,29,30
Sfp inh,11%,.,-1%,8%,.,.,.,8%,10%,17%
Menin MLL FP FL,-3.2,.,3.2,-0.5,.,.,.,-1.8,2.5,3.1
TRPML1 ag,-0.3,1.7,2.6,0.7,1.4,0.2,0.0,2.9,.,1.1
ClpP mod,0.4%,-1.4%,.,-2.8%,-2.6%,1.9%,-44%,-1.2%,.,.
TRPV1 PAM,-8,2,13,17,.,-24,-2,1,17,8
PINK1 expr mod,.,-1.6%,4.7%,6.9%,0.6%,1.5%,-0.9%,1.4%,.,-2.3%
TRPML1 blocker,-11,-22,36,46,-14,-13,-3,4,.,56

31: CCN(CC(=O)Nc1c(F)cccc1F)C(=O)CN1C(=O)c2ccccc2C1=O
32: COc1cccc(NC(=O)c2ccccc2SC)c1
33: O=C(CN1C(=O)COc2ccc(S(=O)(=O)N3CCCCCC3)cc21)N1CCN(c2ccc(F)cc2)CC1
34: CCS(=O)(=O)N1CCC(C(=O)NCC2CCCO2)CC1 (configuration not stated)
35: O=C(CSc1nnc(SCc2cccc3ccccc23)s1)N/N=C/C=C/c1ccccc1[N+](=O)[O-]
36: CC(=O)Nc1ccc(S(=O)(=O)N(C)CC(=O)OCC(=O)NCc2ccco2)cc1
37: COc1ccc(NC(=O)c2ccc(Oc3ncccn3)cc2)cc1
38: COc1ccc(N(CC(=O)Nc2ccccc2C(=O)NCc2ccco2)S(C)(=O)=O)cc1
39: CCCCC(CC)C1OCC(C[N+]2(C)CCOCC2)O1 (configuration not stated)
40: COc1cc(NC(=O)CN2C(=O)CN(C)C(=O)c3ccccc32)cc(OC)c1OC
compound no.,31,32,33,34,35,36,37,38,39,40
Sfp inh,.,-2%,.,3%,15%,.,4%,-3%,-24%,.
Menin MLL FP FL,.,2.8,.,2.3,2.8,.,-3.3,-2.2,1.6,.
TRPML1 ag,-0.3,0.0,0.0,0.7,0.8,-0.2,-0.3,-0.5,1.3,1.6
ClpP mod,0.5%,-0.7%,0.9%,-1.2%,-2.5%,-3.7%,.,-1.2%,0.6%,-3.3%
TRPV1 PAM,-7,1,.,-7,0,3,4,0,8,.
PINK1 expr mod,1.6%,-1.9%[38.3 µM],1.3%,-2.2%[38.3 µM],-2.5%,4.3%,0.0%,?,-1.6%,0.8%
TRPML1 blocker,-7,-15,8,25,-2,13,24,4,8,-6

# Later entries
# Results follow in this order: Sfp inh | Menin MLL FP FL | TRPML1 ag | ClpP mod | TRPV1 PAM | PINK1 expr mod | TRPML1 blocker
41) Cc1cc(N(C)C)c(C#N)c(N2CCOCC2)n1
 : 18% | 2.3 | -0.8 | -2.1% | -16 | -0.2% | 8
42) CCN1CCN(Cc2ccccc2NC(=O)Nc2ccc(C)cc2)CC1
 : 2% | 1.5 | -0.7 | 1.2% | -4 | 1.2% | -4
43) CCN(Cc1ccncc1)Cc1cn[nH]c1-c1cc(OC)c(OC)c(OC)c1
 : 7% | 3.3 | -0.1 | . | 7 | 1.7% | -4
44) CC(C)C1CC(CCN2CCCCC2)(c2ccccc2)CCO1 (configuration not stated)
 : 16% | 0.3 | 0.5 | -1.5% | 22 | -1.3% | 17
45) Cc1cc(NC(=O)CSc2nccn2C)n(-c2ccccc2)n1
 : 7% | 0.7 | -0.2 | -6.8% | ? | 1.0% | 11
46) CCN1C(=O)[C@H]2[C@@H](c3ccc(OC)cc3)N[C@]3(CCCN(CCC(C)C)C3=O)[C@H]2C1=O
 : . | . | -0.2 | 2.1% | . | 1.3% | 47
47) CCOc1ccccc1NCc1nnc2n1CCCCC2
 : . | . | 0.4 | -0.3% | . | 22% | -13
48) Cn1c[n+](C)cc1-c1ccc(/C(N)=N/O)cc1
 : -18% | 2.3 | 0.6 | 0.0% | 2 | 0.5% | 7
49) CCN(Cc1ccccc1)C(=O)c1cc2c(=O)oc3ccc(C)cc3c2s1
 : -1% | -0.5 | 0.0&2.0 | ? | 1 | 0.0%&2.8% | 55&16
50) CCCCc1cc(=O)oc2cc(C)cc(OCC(=O)NCC3CCC(C(=O)O)CC3)c12 (configuration not stated)
 : 13% | 2.2 | . | 4.7% | 7 | 0.2% | .
51) CCOc1ccsc1C(=O)O
 : 13% | 2.7 | 0.1 | . | 8 | 3.6% | 9
52) CC1(C(=O)NS(=O)(=O)c2cccc(F)c2)CCN1C(=O)C/C=C/c1ccccc1 (configuration not stated)
 : . | . | 0.4 | -4.8% | . | 0.4% | 8
53) CCCS(=O)(=O)N1CCCC(C(=O)NCCCN(Cc2ccccc2)C(C)C)C1 (configuration not stated)
 : 7% | 2.0 | -0.6 | 1.8% | -21 | 0.4% | 11
54) O=C(CC(=O)N1CCOCC1)N1CCOCC1
 : . | . | -1.0 | . | . | -1.4% | 6
55) CN(CC(=O)Nc1cccc(C(F)(F)F)c1)S(=O)(=O)c1ccc2[nH]c3c(c2c1)CCCC3
 : . | . | 3.8 | -26% | . | ? | 13
56) COc1ccc(/C=C/C(=O)NCc2cn(C)nc2C)cc1COc1ccc(Cl)cc1Br
 : 9% | 2.3 | 2.1 | 14µM* | 8 | ? | 5
57) COc1ccccc1NC(=O)NCC(c1ccco1)N1CCCCC1 (configuration not stated)
 : 12% | -0.8 | -1.0 | 0.5% | 0 | -1.1% | 1

# Screening data from PubChem.
